A1 inh: inhibitors of the anti-apoptotic protein A1, read as caspase activation | MEF A1-2A-BIM cells, Caspase-Glo 3/7 luminescence, 3 h; percent of clofoctol response, vehicle zero | caspase activation, % (no concentration beside the values) | 330,000 compounds, 0.066% hits | AID 2462;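 active means over half of replicate activation scores above 10%, or exactly half above 10 with the replicate mean above 10; inconclusive means replicate mean below 10 yet half the replicates above 10; inactive means over half of replicates below 10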;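 further: wells of about 30 µL received 50 nL stock; many hits fall short of the cut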
RanGTP-Imp inh: disruptors of Ran-importin-beta complex formation – biochemical, FRET, CFP-Ran, YFP-importin-beta, homogeneous, primary screen | inhibition, % (concentration not given with the values) | AID 2216 | 300,000 compounds, 1.1% hits | cell-free CFP-Ran/YFP-importin-beta FRET ratio;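 active means most replicates above 15%; inconclusive means exactly half above 15%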;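 further: 0% = DMSO wells and 100% = Ran loaded with GDP instead of GTP; wells of about 40 µL received 100 nL stock; the first replicate is given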
Vif TR-FRET: HIV-1 Vif–A3G interaction blockers – biochemical, TR-FRET, GST-Vif 1-94, biotin-A3G peptide, dose response retest, primary screen (AID 1117319). TR-FRET GST-Vif / biotin-A3G peptide binding; higher % means a stronger effect; test concentration not given here; strong numbers were not always called active. inhibition, %; hits with a dose series show IC50 in µM. 260,000 compounds, 0.57% hits;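 active means above the screen mean plus three standard deviations and confirmed in dose response; inconclusive means results disagree or hit not tested in dose response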;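 further: Vif residues 1-94 fused to GST binding biotinylated APOBEC3G peptide 110-148; 0% = full assay without inhibitor and 100% = GST in place of GST-Vif; retest series ran down from 100 µM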
Beta apoptosis: blocks beta cell apoptosis | protection from apoptosis, % (test concentration not listed) | INS-1E cytokine-induced death, ATP luminescence, 48 h; percent of positive-control rescue, neutral wells zero | 300,000 compounds, 0.8% hits | AID 435005;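 active means all replicates at 75% or more, or half of them and the mean; inconclusive means half reach 75% but not the mean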;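 further: 0% = cytokine-treated negative control wells and 100% = positive control rescue; higher means more ATP so stronger rescue from cytokine killing; wells of about 40 µL received 100 nL stock; the first replicate is given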
T cruzi inh: T. cruzi replication inhibition | T. cruzi beta-gal in NIH3T3, luminescence, 90 h | inhibition, % (no concentration beside the values) | 300,000 compounds, 1.4% hits | AID 1885;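 active means mean inhibition across valid replicates above about 55%, limit read from the data; inconclusive means mean below that limit but half or more replicates reach it; inactive means mean below it, under half of replicates reach it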;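 further: signal also drops with host cell toxicity which is not excluded here; 0% = plate median of DMSO wells and 100% = zero luminescence signal; higher percent means less beta-gal luminescence so fewer parasites; stock transfer was 50 nL into about 50 µL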
LANA-H2A inh: blocks KSHV LANA binding to histone H2A/H2B. cell-free LANA-H2A/H2B peptide, fluorescence polarization. inhibition, % (concentration not given with the values). 320,000 compounds, 0.6% hits; in the data active means inhibition mostly above about 10%, no sharp cut-off; inactive means mostly below about 6.7%;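 further: stock transfer was 7.5 nL into about 10 µL; 0% = median of vehicle wells and 100% = median of positive control wells; one replicate is shown; the record names a cut of 25% in any replicate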
Target sequence (Q9QR71 whole entry, looked up): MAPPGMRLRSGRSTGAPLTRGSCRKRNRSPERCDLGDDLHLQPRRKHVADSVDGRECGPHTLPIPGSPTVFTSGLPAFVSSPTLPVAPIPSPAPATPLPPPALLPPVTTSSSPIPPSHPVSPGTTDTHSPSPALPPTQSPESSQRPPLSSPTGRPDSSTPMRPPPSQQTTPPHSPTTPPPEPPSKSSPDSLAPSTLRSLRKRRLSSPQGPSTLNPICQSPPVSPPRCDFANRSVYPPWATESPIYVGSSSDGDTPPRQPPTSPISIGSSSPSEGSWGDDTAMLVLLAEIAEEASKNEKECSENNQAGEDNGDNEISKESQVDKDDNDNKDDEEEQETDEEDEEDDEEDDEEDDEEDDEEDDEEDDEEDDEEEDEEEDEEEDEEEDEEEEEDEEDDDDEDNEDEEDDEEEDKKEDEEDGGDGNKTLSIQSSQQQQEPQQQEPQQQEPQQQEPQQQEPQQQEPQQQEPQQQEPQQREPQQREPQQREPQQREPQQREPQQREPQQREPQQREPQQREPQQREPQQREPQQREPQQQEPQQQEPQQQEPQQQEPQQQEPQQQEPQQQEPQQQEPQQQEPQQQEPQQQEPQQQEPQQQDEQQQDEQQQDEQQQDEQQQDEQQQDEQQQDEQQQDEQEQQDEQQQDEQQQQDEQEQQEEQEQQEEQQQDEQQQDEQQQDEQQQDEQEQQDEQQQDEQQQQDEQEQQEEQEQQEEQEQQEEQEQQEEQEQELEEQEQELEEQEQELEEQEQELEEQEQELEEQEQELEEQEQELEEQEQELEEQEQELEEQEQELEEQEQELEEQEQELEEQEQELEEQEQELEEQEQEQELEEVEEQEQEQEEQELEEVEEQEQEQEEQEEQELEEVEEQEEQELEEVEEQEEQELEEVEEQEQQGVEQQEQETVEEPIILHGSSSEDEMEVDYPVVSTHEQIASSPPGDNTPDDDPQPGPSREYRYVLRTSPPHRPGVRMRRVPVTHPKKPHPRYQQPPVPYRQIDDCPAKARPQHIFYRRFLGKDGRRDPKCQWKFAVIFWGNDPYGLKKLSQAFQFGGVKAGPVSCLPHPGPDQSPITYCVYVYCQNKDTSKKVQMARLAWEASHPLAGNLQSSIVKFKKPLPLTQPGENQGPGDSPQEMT
Calb FLC: C. albicans growth modulation with fluconazole; AID 1979; 300,000 compounds, 0.57% hits; C. albicans CaCi-2 (fluconazole-resistant clinical isolate) + fluconazole, Alamar Blue growth, 48 h; growth inhibition, % (test concentration not listed);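 active means most replicates above 75%; inconclusive means exactly half above 75%; inactive means most below 75%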;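 further: all wells also contain fluconazole at 8 µg/ml as a sub-toxic cotreatment; 0% = median of DMSO wells and 100% = median of geldanamycin control wells; wells of about 8 µL received 7.5 nL stock; the first replicate is given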
MLL AF4-AF9 inh: inhibitors of human MLL-AF4/AF9 interaction; P42568; AlphaScreen, biotin-AF4 peptide binding to FLAG-AF9; inhibition, % at 10 µM; 350,000 compounds, 0.47% hits; AID 651704;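 active means every replicate reaching a set inhibition limit, whatever the replicate mean, cut at about 25% in these data; inconclusive means mean inhibition reaches that limit but some replicates miss it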;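 further: 0% = plate neutral control median and 100% = total signal loss; the record names both 10 and 1 µM as test concentration; the first replicate is given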
Numbers without * were called inactive; i = inactive; ? = inconclusive; nt = no result given; & = joins results of further samples.

SMILES	A1 inh	RanGTP-Imp inh	Vif TR-FRET	Beta apoptosis	T cruzi inh	LANA-H2A inh	Calb FLC	MLL AF4-AF9 inh
C=CCN1C(=O)c2ccccc2Sc2ccc(C(=O)NC(C)C)cc21	0.4	0.2	-4%	-3	-11	-2.6	10	1.1
O=C(Nc1ccc(OC(=O)c2ccncc2)cc1)c1ccncc1	-0.9	1.7	-6%	0	-5	1.6	-1	nt
CCc1nnc(NC(=O)CSc2nnnn2C)s1	0.0	0.6	-1%	7	-20	-0.9	-3	nt
CCOC(=O)c1cc2c(=O)n3ccccc3nc2n(CCCOC)c1=NC(=O)c1cccnc1	1.2	46*	0%	3	5	-2.7	-2	nt
O=c1[nH]c(C2CCN(S(=O)(=O)c3ccccc3)CC2)nc2c1nnn2Cc1c(F)cccc1Cl	-1.3	-0.1	nt	1	24	-1.9	17	-18
CCn1c(C(C)NC(C)=O)nc2ccccc21 (stereo not given)	nt	2.0	3%	1	-10	3.6	-7	-4.8
Cn1c(CSc2nc3ccccc3s2)nnc1SCC(=O)NCc1cccnc1	1.3	1.7	?	-2	2	3.4	11	nt
COc1ccc(Cn2nnnc2CN2CCCCCC2)cc1	-1.1	1.9	-2%	-6	-8	1.8	2	-1.8
O=C(O)CC1SC(=Nc2ccc(O)cc2)NC1=O (stereo not given)	-0.3	-3.7	1%	-6	-12	-1.6	-7	-1.3
Cc1cc(C)cc(NC(=S)N(Cc2cccc(Br)c2)CC2CCC(C(=O)O)CC2)c1 (stereo not given)	-0.4	-2.3	10%	1	7	0.6	23	-2.9
COCCNc1nnc(SCC(=O)NNC(=O)c2ccco2)s1	1.1	nt	-7%	0	nt	-1.1	nt	-9.6
O=C(NCc1ccco1)C(c1ccc(F)cc1)N(Cc1cccnc1)C(=O)Cn1nnc2ccccc21 (stereo not given)	1.0	-0.2	0%&-2%	-3	43	-0.9	-5	nt
CCOC(=O)c1c(NC(=O)Nc2ccc(F)cc2)sc2c1CCN(C)C2	-1.2	20*	-1%	1	37	-2.8	-2	-0.5
CC(C)(C)OC(=O)N[C@@H](Cc1ccccc1)C(=O)N[C@@H](CO)[C@H](O)[C@@H]1C[C@@H]1C(=O)NC1CC1	?	1.0	nt	-2	-4	7.3	-7	2.4
CCOC(=O)c1c(C)[nH]c2ccc(O)cc12	1.0	-3.2	4%	0	-2	1.6	9	nt
CCN(CC)c1ccc(NC(=O)c2ccc(NC(=O)C3CCCO3)cc2)c(C)c1 (stereo not given)	-0.2	nt	6%	4	nt	-0.1	nt	nt
CCCCNC(=O)C1CCCN1C(=O)Nc1ccccc1 (stereo not given)	-0.6	-27	19%	-4	-5	1.5	6	nt
Cc1c(C(=O)N/N=C/c2ccc(-c3ccccc3[N+](=O)[O-])o2)sc(N)c1C#N	-0.2	-1.5	-6%	5	12	-482	-11	nt
C=CCNC(=O)CC(=O)N/N=C/c1ccc(C(=O)OC)cc1	-0.8	1.1	?	3	-4	-0.4	0	nt
CCOC(=O)c1ccc(CNC(=O)C(Cc2c[nH]c3ccccc23)NC(C)=O)o1 (stereo not given)	-0.6	0.0	-1%	-7	-1	0.4	28	nt
O=C(Nc1ccccc1N1CCCC1)c1ccc(F)c(S(=O)(=O)N2CCOCC2)c1	0.2	1.5	5%	-1	-6	-0.6	-7	-2.0
Cc1ccc(OCC(=O)Nc2ccc(-c3nnc(-c4ccco4)o3)cc2)cc1	-0.8	3.5	9%	3	5	0.1	0	nt
COc1ccccc1CNC(=O)c1cc2ccccc2oc1=O	1.2	3.4	-9%	1	-2	1.7	2	-1.4
Fc1ccc(-c2nnc3ccc(N4CCc5ccccc5C4)nn23)cc1	1.1	-0.4	-2%	6	27	-0.9	20	-9.0
NNC(=O)c1nnn(-c2nonc2N)c1CN1CCc2ccccc2C1	0.2	?	?	nt	9	-3.3	26	-1.5
Cc1cccc(NC(=S)N2CCCN(c3ncccc3[N+](=O)[O-])CC2)c1	-0.2	3.5	-5%	-4	-9	2.4	-3	7.2
CC(C)NS(=O)(=O)c1ccc(NC(=O)CCc2ccccc2)cc1	0.0	8.4	19%	-1	-20	-0.5	11	6.2
CCOCCc1nnc(NC(=O)Cc2ccccc2)s1	0.9	2.2	0%	-1	2	-2.6	1	nt
O=C(Nc1ccccc1N1CCOCC1)c1ccc2ccccc2n1	-0.6	1.1	26%	6	16	11	6	nt
CCOc1ccc(CCNC(=O)COC(=O)c2cccc(S(=O)(=O)N3CCCCC3)c2)cc1OCC	-0.6	?	2%	-1	5	-1.6	3	0.9
O=C(c1ccco1)N1CCN(S(=O)(=O)c2cccs2)CC1	0.3	-1.5	23%	-3	-5	-1.9	25	-19
CNC(=O)NC(=O)COc1ccc2oc3c(c2c1)CCCC3	-0.1	9.0	nt	-4	7	-1.6	14	-4.3
COc1ccc(/C=N/NC(=O)c2ccc(Cl)c(S(N)(=O)=O)c2)cc1OCC(N)=O	0.3	2.9	-3%	-5	-3	1.3	2	-5.2
CCn1c(CCc2nc3ccccc3[nH]2)n[nH]c1=S	0.4	-0.5	6%	4	-7	3.4	-5	-3.5
O=C(O)Cc1csc(NC(=O)CSc2cccc(C(=O)O)n2)n1	-0.2	2.4	-6%	-9	-1	1.5	7	-0.5
CCOCC(=O)Nc1cc(-c2cn3cccnc3n2)ccc1C	0.7	3.7	-6%	-6	-1	1.8	6	0.7
Cc1cc(C(=O)CSc2n[nH]c(N)n2)c(C)n1-c1ccc(F)cc1	0.3	-0.5	5%	4	-1	2.5	-8	nt
COCCSc1ccccc1C(=O)Nc1ccncc1	0.0	-0.7	2%	nt	-4	2.3	?	10
Cc1cc2c(c(=O)n1CCc1ccccc1)C(C(C)C)C(C#N)=C(N)O2 (stereo not given)	-0.7	-0.8	-10%	1	7	0.4	-14	nt
Cc1cccc(-c2nnc3n2N=C(c2ccccc2)CS3)c1	0.4	-4.3	1%	15	6	-2.6	25	nt
COc1ccc(S(=O)(=O)N2CCc3ccccc32)cc1C(=O)NCCc1ccccn1	3.2	1.5	-6%	-1	28	-5.5	-1	-0.7
CC(=O)Nc1ccc(NC2=C(Cl)C(=O)c3ccccc3C2=O)cc1	nt	1.5	11%	nt	?	nt	37	-3.2
COc1ccc(C(=O)NN2C(=O)C3CCC(C)(C2=O)C3(C)C)cc1 (stereo not given)	0.1	5.3	6%	-8	-24	5.8	0	nt
CCOC(=O)c1cnn(-c2ccccc2)c1-n1cccc1C(=O)C(=O)Nc1ccc(F)cc1	-0.5	-0.2	-4%	9	10	-1.3	5	nt
O=C(CN1C(=O)NC2(CCCCCCC2)C1=O)Nc1ccc(Br)cc1Br	-0.7	nt	nt	-13	nt	3.7	nt	1.8
O=C(NCC1CCN(Cc2ccccc2F)CC1)C1CCCN(c2ncnc3c2nc2n3CCCCC2)C1 (stereo not given)	?	27	nt	-7	29	1.6	-1	0.5
CC(=O)n1ccnc1	1.1	-0.7	nt	-3	-3	1.4	nt	0.1
Cc1oc2cc3oc(=O)c(CCC(=O)N[C@H](C(=O)O)C(C)C)c(C)c3cc2c1C	0.2	2.3	-3%	-4	-2	-3.5	-1	1.0
O=C1NC2(CCCCC2)C(=O)N1CCN1C(=O)c2ccccc2C1=O	0.1	3.3	6%	1	8	-6.1	-5	-1.2
COc1cc2c(cc1NS(=O)(=O)N1CCCCC1)oc1ccccc12	-0.4	-3.7	19%	-5	-9	-4.8	-12	nt
O=C(Cn1cc(S(=O)(=O)Cc2ccccc2)c2ccccc21)N1CCOCC1	-0.4	0.8	-2%	-2	2	-2.8	-3	-2.7
Cc1cc(C(=O)CSc2nnc(-c3cccnc3)n2-c2ccccc2F)c(C)n1CC1CCCO1 (stereo not given)	-0.6	4.7	23%	-6	10	-1.9	-7	nt
CCN(CC(=O)Nc1cccc(OC)c1)CC(=O)Nc1ccccc1C	-0.1	-3.1	-5%	-4	-1	1.8	1	-1.9
CCOC(=O)/C=C/c1nc(C(=O)OCC)c(C)c(=O)[nH]1	-0.3	-1.0	-6%	0	4	4.3	-4	3.8
COc1cc(C(=O)NC2CC(C)(C)Cc3c2cnn3-c2ccccc2)cc(OC)c1OC (stereo not given)	0.7	0.5	nt	8	-6	-3.0	3	-1.0
O=C1c2ccccc2C(=O)N1/N=C/c1ccc(O)c(O)c1	0.8	-0.8	29%	2	-12	6.4	21	nt
CC(NC(=O)C1CCN(C(=O)Nc2ccccc2)CC1)c1ccccc1 (stereo not given)	0.9	?	-5%	-3	1	nt	11	-9.4
COC(=O)C1=C(C(=O)OC)C(c2ccc(OC)c(OC)c2)c2sc(=O)[nH]c2S1 (stereo not given)	-0.3	3.5	3%	6	8	-8.3	-23	-7.4
C[C@@H](OC(=O)c1[nH]cnc1C(=O)N1CCN(C(=O)OC(C)(C)C)CC1)c1ccccc1	0.2	nt	nt	-1	nt	-2.7	nt	2.6
CN(C)C(=O)CSc1nnc(-c2cnccn2)n1C	-0.3	2.5	nt	-3	-1	5.8	26	nt

(more compounds)
SMILES	A1 inh	RanGTP-Imp inh	Vif TR-FRET	Beta apoptosis	T cruzi inh	LANA-H2A inh	Calb FLC	MLL AF4-AF9 inh
O=C(CCN1C(=O)c2ccc([N+](=O)[O-])cc2C1=O)Nc1ccccc1C(=O)O	1.6	0.8	nt	0	5	0.4	-5	-22
Cc1ccc(C)c(S(=O)(=O)NCC(=O)N2CCCC2)c1	0.2	3.6	nt	-2	-13	2.6	8	3.4
Cc1cccc(NC(=O)CN2CCN(C(=O)c3oc4c(Cl)cccc4c3C)CC2)c1C	-0.1	nt	-10%	-5	nt	i	nt	-0.7
CCOC(=O)N1CCN(Cc2nc(N)nc(Nc3ccc(C)cc3)n2)CC1	nt	0.3	21%	nt	-22	nt	-3	nt
Cc1cccc(N2CC(O)(c3cccs3)[N+]3=C2CCCC3)c1C (stereo not given)	0.1	0.9	7%	2	-96	0.8	-23	-5.5
COc1ccc(OC)c(Nc2nc(-c3sc(NC(=O)c4ccccc4)nc3C)cs2)c1	-0.4	3.1	13%	43	-15	-5.7	1	nt
O=C(NCc1ccccn1)c1coc(=O)c(Br)c1	-0.6	4.2	59µM*	5	-15	0.3	2	nt
COC(=O)Nc1ccc(S(=O)(=O)N2CCCC(C(=O)NC3CCCCC3)C2)cc1 (stereo not given)	0.7	-2.7	-7%	5	-1	-1.9	-1	-1.6
Fc1ccc(-c2cc(-c3cccs3)cc(-c3ccccc3)n2)cc1	0.0	1.6	0%	12	29	-0.4	0	-15
Cc1cccc(NC(=O)CN(C)S(=O)(=O)c2cccc3cccnc23)c1	-0.4	0.5	2%	nt	-1	-1.0	0	-1.9
Brc1cc2ccccc2[n+](Cc2ccccc2)c1	1.2	-7.6	nt	-3	11	-4.3	-8	-0.5
O=C(/C=C/c1ccc(Cl)c([N+](=O)[O-])c1)Nc1ccc(NC(=O)c2ccco2)cc1	nt	3.2	nt	nt	-14	nt	3	-1.7
Cc1ccc(C)c(NC(=O)COC(=O)c2ccc3c(c2)OCO3)c1	0.1	0.1	-2%	-3	-9	-2.5	-4	0.5
CCOC(=O)c1c(C)[nH]c(C(=O)COC(=O)c2cccnc2Cl)c1C	-1.1	nt	nt	4	nt	-2.7	nt	-1.3
